Screens from PubChem BioAssay.
gsp ag: qHTS for Agonist of gsp, the Etiologic Mutation Responsible for Fibrous Dysplasia/McCune-Albright Syndrome: qHTS. AID 624287, 2012. actives 0.13% (n = 340,000). gsp mutant cells, cAMP HTRF, 30 min; control for the full effect not named in the record. Potency, µM (series often up to 76.9 µM), without a hit: top-dose activation (cAMP increase), actives largely listed as activators; active = well fitted activation curve with a large enough effect; inconclusive = small, poorly fitted or top-dose-only effect, or another doubt; inactive = no such curve, though single readings can be large or run the other way; cell line not stated here;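 further: phosphodiesterase inhibitor Ro 20-1724 added with compounds to block cAMP breakdown; potency means the concentration at half of the fitted maximal effect; nearly all actives have a fitted effect of over 60% in size; about a fifth of the inactives were tested at one dose only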
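Cells stably selected in G418 were plated at 2000/well, grown 16-24 hr, then given compounds in DMSO with the PDE inhibitor […] (300 uM solution added) for 30 min at 37C; cAMP was read by HTRF.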
TRPV1 potentiator: HTS Assay for Compounds that Act as Potentiators of the Vanilloid Receptor 1; actives 0.02% (n = 320,000); potentiation, % at 8.33 µM; TRPV1-expressing cells, Fluo-8 calcium influx, capsaicin EC20 potentiation; host cell line not named in the record; control for the full effect not named in the record; AID 540277, 2011; active means potentiation above 80%; inconclusive means 30% to 80%; inactive means below 30%; further: 0% is about no effect
Target sequence (Q8NER1 whole entry, looked up): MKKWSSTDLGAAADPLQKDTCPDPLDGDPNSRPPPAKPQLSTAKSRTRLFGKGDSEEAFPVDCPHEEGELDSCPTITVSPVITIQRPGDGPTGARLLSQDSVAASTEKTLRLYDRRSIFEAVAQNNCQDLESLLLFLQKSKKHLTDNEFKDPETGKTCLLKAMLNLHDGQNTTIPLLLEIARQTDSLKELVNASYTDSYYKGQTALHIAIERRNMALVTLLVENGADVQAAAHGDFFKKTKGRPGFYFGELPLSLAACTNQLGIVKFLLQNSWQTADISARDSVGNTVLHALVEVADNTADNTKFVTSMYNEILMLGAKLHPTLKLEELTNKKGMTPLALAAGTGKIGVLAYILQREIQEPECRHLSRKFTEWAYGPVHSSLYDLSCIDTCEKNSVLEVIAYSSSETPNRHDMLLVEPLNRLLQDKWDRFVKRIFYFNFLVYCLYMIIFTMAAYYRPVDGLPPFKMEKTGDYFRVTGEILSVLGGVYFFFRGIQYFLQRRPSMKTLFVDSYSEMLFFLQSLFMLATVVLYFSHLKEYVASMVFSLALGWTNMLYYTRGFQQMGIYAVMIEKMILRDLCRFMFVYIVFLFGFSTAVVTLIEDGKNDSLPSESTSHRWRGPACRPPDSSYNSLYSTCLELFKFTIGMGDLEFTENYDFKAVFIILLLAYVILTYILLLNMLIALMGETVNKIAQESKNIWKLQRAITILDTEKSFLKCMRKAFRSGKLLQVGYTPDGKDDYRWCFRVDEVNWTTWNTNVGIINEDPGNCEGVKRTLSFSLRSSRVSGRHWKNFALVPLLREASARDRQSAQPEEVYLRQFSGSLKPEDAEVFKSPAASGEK
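Cells expressing TRPV1 were dye-loaded with Fluo-8 and read kinetically: 10 s baseline, 3 min after compound (agonist portion), then 2 min after EC20 capsaicin (allosteric enhancer portion). Calcium-bound dye fluorescence at 480/520 nm.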
gsp antag: qHTS for Antagonists of gsp, the Etiologic Mutation Responsible for Fibrous Dysplasia/McCune-Albright Syndrome: qHTS; actives 0.4% (n = 340,000); gsp-mutant cells, cAMP HTRF, 30 min; control for the full effect not named in the record; Potency, µM (top dose mostly 76.9 µM), for the others: at the top dose activity change, negative = inhibition, actives largely listed as inhibitors; active = falling curve of any shape with a large fitted effect; inconclusive = falling curve, mostly with a smaller effect; inactive = flat or rising curve; cell line not stated here;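 further: intracellular cAMP measured with PDE inhibitor Ro 20-1724 present during compound exposure; potency means the concentration at half of the fitted maximal effect; on the % scale 0 is the no-effect control and ±100 the full control effect; nearly all actives have a fitted effect of over 65% in size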
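Cells, 2000/well, grown 16–24 h in DMEM 10% FBS with 0.5 mg/ml G418, then compounds plus […] (300 uM addition stock), 30 min at 37C. cAMP read by HTRF (cAMP-d2 and anti-cAMP antibody-K in lysis buffer) after 30 min RT.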
Menin-MLL FL inh: qHTS Assay for Inhibitors Targeting the Menin-MLL Interaction in MLL Related Leukemias: Competition With Fluorescein Labeled MLL-derived Peptide; Fluorescence polarization, fluorescein-MLL peptide displacement from menin; FP activity change, % at 61.4 µM; 290,000 tested, under 10 active; inconclusive = falling polarisation curve, or a change in total fluorescence; inactive = total fluorescence flat and polarisation flat or rising; no compound was filed as active; the % refers to the polarisation; negative = inhibition;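 further: % of control where 0% means no effect; inhibitors lower the polarisation; unlabelled MLL peptide was the positive control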
ClpP mod: qHTS Assay for Activators of ClpP; ATP-dependent Clp protease proteolytic subunit (Bacillus subtilis (strain 168)), P80244; purified B. subtilis ClpP, FRET peptide cleavage, 20 min; Potency, µM (doses to about 57.5 µM), for inactives: at the top dose activity change, negative = active; actives 1.9% (n = 340,000); AID 651965, 2013; active = well fitted falling curve with a large enough effect; inconclusive = small, poorly fitted or top-dose-only effect; inactive = no such curve, though single readings can be large or run the other way; further: potency means the concentration at half of the fitted maximal effect; the source files actives as falling curves though it sought activators and does not explain the sign; nearly all actives have a fitted effect of over 65% in size; many hits overshoot -100%
Target sequence (P80244 whole entry, looked up): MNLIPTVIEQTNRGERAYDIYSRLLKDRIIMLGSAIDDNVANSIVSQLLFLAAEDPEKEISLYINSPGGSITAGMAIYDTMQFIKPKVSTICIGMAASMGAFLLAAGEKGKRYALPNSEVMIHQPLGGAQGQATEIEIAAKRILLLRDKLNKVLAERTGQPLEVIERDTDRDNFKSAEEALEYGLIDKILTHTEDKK
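Buffer: 100 mM Tris/HCl pH8, 100 mM KCl, 0.05% low protease BSA, 2.5% glycerol, 0.01% Tween-20. ClpP 10 microg/mL final; 20 min RT; delta FRET normalized to ADEP and DMSO controls.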
CtBP-E1A inh: qHTS Assay for Inhibitors of the CtBP/E1A Interaction; CtBP / adenovirus E1A interaction (AlphaScreen); AlphaScreen GST-E1A/His-CtBP binding, 1536-well; stronger effect = lower value; control for the full effect not named in the record; activity change, % (test concentration not listed); actives 0.49% (n = 340,000); AID 651724, 2012; in the data active means activity change below about -65%; inconclusive means about -30% to -65%; inactive means above about -30%; further: on the % scale 0 is the no-effect control and ±100 the full control effect; compound concentration not given in the record
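Steps: dispense buffer (Tris pH 8.0, NaCl 300 mM, TCEP 1 mM, BSA, Tween 20); add 5X protein mix (GST-E1A, His-CtBP, 125 nM each); pin 23 nL compound; 2 h at 37 °C, dark; add 5X beads (50 ug/mL); 1 h; read.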
Sfp PPTase inh: qHTS Assay for Inhibitors of Bacillus subtilis Sfp phosphopantetheinyl transferase (PPTase); actives 3.5% (n = 310,000); AID 1490, 2009; Biochemical Sfp PPTase activity, qHTS; 4'-phosphopantetheinyl transferase ffp (Bacillus subtilis), Q9F4F7; Potency, µM, inactives show max response, negative = inhibition, actives largely listed as inhibitors; active means well fitted inhibition curve with a large enough effect; inconclusive means small, poorly fitted or top-dose-only effect, or another doubt; inactive means no such curve, though single readings can be large or run the other way;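 further: the enzyme is Sfp with the accession as filed and its product quenches rhodamine fluorescence; potency means the concentration at half of the fitted maximal effect; 0% = enzyme reaction without inhibitor and -100% = no enzyme wells; top concentration of the series not given in the record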
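Compounds were incubated with enzyme (final 15 nM) for 15 min at room temperature before substrate addition started the reaction. Fluorescence at 525 nm excitation, 598 nm emission was recorded immediately and after 30 minutes.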
* marks the source's active call; other numbers are inactive results; [ ] = dose if it differs, or a comment.

What do the screens show for `Cn1c(SCC(=O)c2ccc(O)c(O)c2)nnc1-c1ccccc1`?
gsp ag: 0%; TRPV1 potentiator: 24; gsp antag: -18%; Menin-MLL FL inh: 0.6; ClpP mod: -3.6%; CtBP-E1A inh: -1; Sfp PPTase inh: 79µM*

What do the screens show for `COc1cc2c(cc1OC)-c1nnc(C)n1C(C)(C)C2`?
gsp ag: -1%; TRPV1 potentiator: 4; gsp antag: 16%; Menin-MLL FL inh: -1.3; ClpP mod: -13%; CtBP-E1A inh: 0; Sfp PPTase inh: 12%

How did CN1CCN(C(=S)c2cn(Cc3ccc(F)cc3)c3ccccc23)CC1 do in these assays?
gsp ag: -77%[inhibitor]; TRPV1 potentiator: -7; gsp antag: -4%; Menin-MLL FL inh: 0.0; ClpP mod: -1.1%; Sfp PPTase inh: 15%

Results for COc1cccc(CCC(=O)O)c1OC ?
gsp ag: 8%[15.4 µM]; TRPV1 potentiator: -12; gsp antag: 4%; Menin-MLL FL inh: -0.1; ClpP mod: -0.9%; CtBP-E1A inh: 9; Sfp PPTase inh: -5%

How did O=C(Cn1cncn1)N/N=C/c1ccccc1Cl do in these assays?
gsp ag: -23%; TRPV1 potentiator: -7; gsp antag: 5%; Menin-MLL FL inh: -0.8; ClpP mod: -1.3%; Sfp PPTase inh: 1%

What do the screens show for `CNC(=S)N1N=C(c2ccc(C)cc2)CC1c1ccc(Br)cc1` (stereo not given)?
gsp ag: 1%; TRPV1 potentiator: -11; gsp antag: 8%; Menin-MLL FL inh: 5.8; ClpP mod: -3.2%; CtBP-E1A inh: -6; Sfp PPTase inh: 8%

Results for CCCN(CC(=O)Nc1ccccc1C)C(=O)C1CCN(S(=O)(=O)c2cccc(C(F)(F)F)c2)CC1 ?
gsp ag: 2%[15.4 µM]; TRPV1 potentiator: 1; gsp antag: 2%; ClpP mod: 0.7%; CtBP-E1A inh: 8

Results for CCOCCN(C=O)c1cccc(OC)c1 ?
gsp ag: -47%[inhibitor]; TRPV1 potentiator: 6; gsp antag: 6%; Menin-MLL FL inh: 1.4; ClpP mod: -2.5%; CtBP-E1A inh: 4; Sfp PPTase inh: 4%

What do the screens show for `Cc1sc2nc(CN(C(=O)NC3CCCCC3)C3CCCCC3)[nH]c(=O)c2c1C`?
gsp ag: 14%; TRPV1 potentiator: -29; gsp antag: 3%; Menin-MLL FL inh: 0.5; ClpP mod: -2.9%; CtBP-E1A inh: -9; Sfp PPTase inh: 11%

What do the screens show for `COCCCC1CCN(C(=O)C2CCC(=O)N(Cc3cccc(F)c3)C2)CC1` (stereo not given)?
gsp ag: -116%[inhibitor]; TRPV1 potentiator: -2; gsp antag: 15%; ClpP mod: -3.0%; CtBP-E1A inh: -4; Sfp PPTase inh: 2%

Results for CC(=O)c1cccc(NC(=O)/C(=C/c2ccncc2)NC(=O)c2ccccc2)c1 ?
gsp ag: -84%[inhibitor]; TRPV1 potentiator: 1; gsp antag: -5%; Menin-MLL FL inh: -6.8; ClpP mod: 0.8%; CtBP-E1A inh: 6; Sfp PPTase inh: 4%

How did O=C(O)c1cccc(N2C(=O)c3cc4cccc(Br)c4cc3C2=O)c1 do in these assays?
gsp ag: inconclusive; TRPV1 potentiator: -3; gsp antag: 12%; Menin-MLL FL inh: -0.1; CtBP-E1A inh: 11; Sfp PPTase inh: inconclusive

Results for O=C(CSc1nc2c(c(=O)n1-c1ccc(Cl)cc1)SCC2)Nc1nccs1 ?
gsp ag: 16%; TRPV1 potentiator: -35; gsp antag: -25%; Menin-MLL FL inh: 4.0; ClpP mod: -1.0%; CtBP-E1A inh: -1; Sfp PPTase inh: -25%

How did COc1ccc(-c2nnc(SCC(=O)NCc3cccs3)n2C)cc1 do in these assays?
gsp ag: 18%; TRPV1 potentiator: 1; gsp antag: 4%; Menin-MLL FL inh: -0.4; ClpP mod: 1.0%; CtBP-E1A inh: 6; Sfp PPTase inh: -4%

Results for COc1ccc(/C=C2/CCc3ccccc3C2=O)cc1OC ?
gsp ag: -11%; TRPV1 potentiator: 0; gsp antag: -6%; Menin-MLL FL inh: 3.8; ClpP mod: 0.5%; CtBP-E1A inh: -7; Sfp PPTase inh: -15%

What do the screens show for `CN(C)NC(=S)Nc1ccc(S(=O)(=O)N2CCCCC2)cc1`?
gsp ag: 3%[15.4 µM]; TRPV1 potentiator: 4; gsp antag: 3%; Menin-MLL FL inh: 1.7; CtBP-E1A inh: -12; Sfp PPTase inh: 17%

How did CCCc1nn(C)c(C(N)=O)c1[N+](=O)[O-] do in these assays?
gsp ag: 10%; TRPV1 potentiator: 7; gsp antag: 2%; Menin-MLL FL inh: 1.4; CtBP-E1A inh: 0; Sfp PPTase inh: 12%

Results for COCCCNCCOCCOc1c(OC)cccc1OC ?
gsp ag: 18%; TRPV1 potentiator: 12; gsp antag: 4%; Menin-MLL FL inh: 3.3; ClpP mod: 0.4%; CtBP-E1A inh: -2; Sfp PPTase inh: 15%

How did C[C@@H](C(=O)Nc1cccnc1)n1c(=O)[nH]c2ccccc2c1=O do in these assays?
gsp ag: 23%; TRPV1 potentiator: -12; gsp antag: 2%; ClpP mod: 4.1%; Sfp PPTase inh: 11%

Results for Cc1cc(NC(=O)c2ccccc2F)ncc1NC(=O)c1cccs1 ?
gsp ag: 16%; TRPV1 potentiator: 8; gsp antag: -7%; Menin-MLL FL inh: -1.6; ClpP mod: -8.4%; Sfp PPTase inh: 7%

Results for Cc1c(NC(=O)COC(=O)C2=COCCO2)cccc1[N+](=O)[O-] ?
gsp ag: -8%; TRPV1 potentiator: -3; gsp antag: 15%; ClpP mod: 0.2%; CtBP-E1A inh: 6

How did O=C(NCCOc1ccccc1)c1cc(C(=O)NCCOc2ccccc2)cc([N+](=O)[O-])c1 do in these assays?
gsp ag: -78%; TRPV1 potentiator: 0; gsp antag: -4%; Menin-MLL FL inh: 3.6; ClpP mod: -3.1%; CtBP-E1A inh: 11; Sfp PPTase inh: 5%

What do the screens show for `COc1cc(CCNC(=O)c2ccccc2NC(=O)C2=C(C)OCCS2)cc(OC)c1OC`?
gsp ag: 6%; TRPV1 potentiator: 6; gsp antag: 22%; ClpP mod: -5.7%; CtBP-E1A inh: -10; Sfp PPTase inh: 6%

What do the screens show for `Cc1cc(N2CCOCC2)c2c(N)c(C)cc(C)c2n1`?
gsp ag: 0%; TRPV1 potentiator: 1; gsp antag: -17%; Menin-MLL FL inh: 9.9; ClpP mod: 0.2%; CtBP-E1A inh: 1; Sfp PPTase inh: -2%

How did Cc1nc(CNS(=O)(=O)c2cccc(F)c2)cs1 do in these assays?
gsp ag: -53%[inhibitor]; TRPV1 potentiator: -7; gsp antag: 10%; Menin-MLL FL inh: -4.4; ClpP mod: 0.6%; CtBP-E1A inh: 4; Sfp PPTase inh: 14%

How did COc1cc(C2c3c(oc4ccccc4c3=O)C(=O)N2Cc2cccnc2)cc(OC)c1OC (stereo not given) do in these assays?
TRPV1 potentiator: -18; Menin-MLL FL inh: -0.2; Sfp PPTase inh: 4%

What do the screens show for `O=C(NCC1CCCO1)c1ccccc1-c1nc(-c2ccccc2Cl)no1` (stereo not given)?
gsp ag: -2%; TRPV1 potentiator: -14; gsp antag: 3%; Menin-MLL FL inh: -5.3; CtBP-E1A inh: 8; Sfp PPTase inh: -4%

What do the screens show for `CCOc1cc(/C=N/Nc2nc(Nc3ccccc3)nc(N3CCCCC3)n2)ccc1OCC(=O)O`?
gsp ag: -39%[inhibitor]; TRPV1 potentiator: -15; gsp antag: -10%; Menin-MLL FL inh: -2.9; CtBP-E1A inh: -7; Sfp PPTase inh: 4%

How did CC1CC(C)CN(C(=O)Cn2c(=O)n(CCCC(=O)NCc3ccco3)c(=O)c3sccc32)C1 (stereo not given) do in these assays?
gsp ag: 19%; TRPV1 potentiator: 25; gsp antag: -5%; Menin-MLL FL inh: 3.0; CtBP-E1A inh: -2; Sfp PPTase inh: 14%

What do the screens show for `O=C(COc1ccc(Cl)cc1)OCC(=O)c1ccc[nH]1`?
gsp ag: 17%; TRPV1 potentiator: -11; gsp antag: 1%; ClpP mod: -0.2%; CtBP-E1A inh: 6

How did CC(=O)Nc1ccc(C(=O)NCC2(N3CCCCC3)CCCCC2)cc1 do in these assays?
gsp ag: 2%; TRPV1 potentiator: -1; gsp antag: 6%; ClpP mod: -2.1%; CtBP-E1A inh: 0; Sfp PPTase inh: 10%

How did Cc1cc(-c2ccc(Cl)cc2)n2ncnc2n1 do in these assays?
gsp ag: 25%; TRPV1 potentiator: 6; gsp antag: 15%; Menin-MLL FL inh: -0.8; ClpP mod: 4.1%; CtBP-E1A inh: 3; Sfp PPTase inh: 16%

Results for CCOc1cc2c(cc1OCC)C(c1ccccc1)N(c1ccc(C(=O)O)cc1)C(=O)C2 (stereo not given) ?
gsp ag: -15%[15.4 µM]; TRPV1 potentiator: -5; gsp antag: -17%; Menin-MLL FL inh: -2.4; CtBP-E1A inh: 0; Sfp PPTase inh: 10%

Grouped by structure, the compounds so far with bromine
What do the screens show for `CNC(=S)N1N=C(c2ccc(C)cc2)CC1c1ccc(Br)cc1` (stereo not given)?
gsp ag: 1%; TRPV1 potentiator: -11; gsp antag: 8%; Menin-MLL FL inh: 5.8; ClpP mod: -3.2%; CtBP-E1A inh: -6; Sfp PPTase inh: 8%

How did O=C(O)c1cccc(N2C(=O)c3cc4cccc(Br)c4cc3C2=O)c1 do in these assays?
gsp ag: inconclusive; TRPV1 potentiator: -3; gsp antag: 12%; Menin-MLL FL inh: -0.1; CtBP-E1A inh: 11; Sfp PPTase inh: inconclusive
